2A Renilla – lowers the Renilla signal of an FMDV 2A StopGo reporter. 120,000 compounds, 0.32% hits. AID 1745857. HEK cells with a luciferase reporter of 2A StopGo recoding. Potency, µM (highest dose often 57.5 µM), for inactives: at the top dose signal change, negative = less light; active means well fitted falling curve with a large enough effect; inconclusive means small, poorly fitted or top-dose-only effect; inactive means no such curve, though single readings can be large or run the other way; note: nearly all actives have a fitted effect of over 55% in size; overnight with compound
2A firefly – lowers the firefly signal of an FMDV 2A StopGo reporter. AID 1745856. Potency, µM (series often up to 57.5 µM), for inactives: top-dose signal change, negative = less light. HEK cells with a luciferase reporter of 2A StopGo recoding. 120,000 compounds, 0.23% hits; active = well fitted falling curve with a large enough effect; inconclusive = small, poorly fitted or top-dose-only effect; inactive = no such curve, though single readings can be large or run the other way; note: nearly all actives have a fitted effect of over 60% in size; overnight with compound
The depositor's hits bear a star; & = joins results of further samples; [ ] = remark or other dose. % is set by controls: 0 for no effect and ±100 for the full control effect; potency is the fitted concentration of half-maximal effect. Some of the compounds tested; rates above refer to the full screens.

CCNc1ccc2oc3ccccc3c2c1 was read as 2A Renilla -2.3% and 2A firefly 6.9%.
`COC(=O)c1ccc(CNC(C)=O)cc1` gave 2A Renilla 0.5%[1.06 µM] and 2A firefly 10.6%.
Screening CC(C)Cn1c(=O)c2ccccc2n2c(CCC(=O)NC(C)c3ccccc3)nnc12 (stereo not given) returned 2A Renilla 2.1% and 2A firefly -2.8%.
For Cc1ccc2onc(CC(=O)Nc3cccc(C(F)(F)F)c3)c2c1 the results were 2A Renilla 44.9%[activator] and 2A firefly 14.5%.
Screening COc1cc(CNCCSc2nnnn2C)ccc1OCc1ccc(C)cc1 returned 2A Renilla -8.9% and 2A firefly 54.6%[activator].
CCc1cccc2c(-c3ccccc3)nc(SCC(=O)Nc3ccc(OC)cc3)nc12 was read as 2A Renilla -7.9% and 2A firefly -4.6%.
COC(=O)C(NC(=O)CC(C)C)(Nc1nc2c(s1)CCCC2)C(F)(F)F (stereo not given) was read as 2A Renilla 159.3%[activator] and 2A firefly 4.7%.
Screening CN(C)C(=O)c1ccc(I)cc1 returned 2A Renilla -1.3% and 2A firefly 5.7%.
For COc1ccc(C(=O)Nc2ccc(-c3cc4ccccc4oc3=O)c(C)c2)cc1Br the results were 2A Renilla -13.9% and 2A firefly -4.6%.
CSc1nn(Cc2cccc(C)c2)c(N)c1S(=O)(=O)c1ccccc1 was read as 2A Renilla 115.3%[activator] and 2A firefly inconclusive.
For COc1ccc(CN2CCc3nc(SCC(=O)Nc4cc(C)cc(C)c4)[nH]c(=O)c3C2)cc1 the results were 2A Renilla -6.6% and 2A firefly -11.1%.
O=C(NCC(=O)N(c1ccccc1)C1(C(=O)NC2CCCCC2)CCCCC1)c1ccccc1 was read as 2A Renilla 13.5% and 2A firefly -5.1%.
`CCCN(CC(=O)Nc1ccccc1OC)C(=O)c1cc(=O)c2ccccc2o1` gave 2A Renilla 15.4% and 2A firefly 12.4%.
Screening CC1CCN(c2nn3c(=O)c(C(=O)NC(C)C)cnc3s2)CC1 returned 2A Renilla 4.9% and 2A firefly 6.8%.
`Cc1ccc2oc(=O)cc(CN3CCN(CCO)CC3)c2c1` gave 2A Renilla -12.5% and 2A firefly -9.3%.
For Cc1ccc(C)c(NC(=O)C(=O)NCC(c2cccnc2)N2CCN(c3ccc(F)cc3)CC2)c1 (stereo not given) the results were 2A Renilla -14.7% and 2A firefly 17.7%.
Screening CSc1nc(C)c(CCC(=O)NC(C)c2ccc(F)cc2F)c(C)n1 (stereo not given) returned 2A Renilla 2.1% and 2A firefly 0.1%.
Screening Cc1ccc(OCC(=O)N(Cc2ccco2)c2ccccn2)cc1 returned 2A Renilla 0.0% and 2A firefly 16.4%.
Nc1ccn(C2CO[C@H](CO)O2)c(=O)n1 (stereo not given in full) was read as 2A Renilla -14.4% and 2A firefly -12.7%.
`Cc1ccc(Cl)cc1-n1ncc2c(=O)n(CC(=O)Nc3ccc(F)cc3Cl)cnc21` gave 2A Renilla 1.8% and 2A firefly -3.8%.
For CCc1nc2ccccc2c(C(=O)OCC(=O)NC(=O)NC(C)C)c1C the results were 2A Renilla inconclusive and 2A firefly inconclusive.
Screening COc1cc(-c2cc3n(C)c(C)c(CCC(=O)Nc4ccc(F)cc4)c(=O)n3n2)cc(OC)c1OC returned 2A Renilla -4.6% and 2A firefly -4.6%.
O=C(Nc1cccc2[nH]ccc12)C(=O)NC1CCCC1 was read as 2A Renilla 6.1% and 2A firefly 76.0%[activator].
`Cc1ccc(NC(=O)CSc2nnc3n(CC(C)C)c(=O)c4cc(F)ccc4n23)c(C)c1` gave 2A Renilla -16.3% and 2A firefly -15.5%.
For COc1cccc(C2SCC(=O)Nc3[nH]ncc32)c1 (stereo not given) the results were 2A Renilla 17.1% and 2A firefly 0.0%.
For CCc1nc2ccc(C(=O)NCCc3ccc(SC)cc3)cc2nc1CC the results were 2A Renilla -12.9% and 2A firefly 62.4%[activator].
For CS(=O)(=O)c1ccc2sc(N)nc2c1 the results were 2A Renilla -6.6% and 2A firefly 16.4%.
`CN(Cc1nc2ccccc2c(=O)[nH]1)C(=O)Cc1csc(-c2ccccc2Cl)n1` gave 2A Renilla 3.7% and 2A firefly -7.2%.
COc1ccc(N2CC(c3nc(-c4cc(OC)c(OC)c(OC)c4)no3)CC2=O)cc1Cl (stereo not given) was read as 2A Renilla 2.9% and 2A firefly -10.9%.
Screening CC(=O)Nc1cccc(C(C)NC(=O)Nc2cccc(Cl)c2Cl)c1 (stereo not given) returned 2A Renilla 0.0% and 2A firefly 0.0%.
For Cc1cc(Nc2ccccc2F)n2nc(Cc3ccccc3)nc2n1 the results were 2A Renilla 42.8% and 2A firefly 18.5%.
Cc1ccc(Cl)cc1N1CCN(c2ncnc3onc(-c4ccc(F)cc4)c23)CC1 was read as 2A Renilla 2.6% and 2A firefly 2.7%.
CC(=O)OCC1=C(C(=O)O)N2C(=O)[C@@H](NC(=O)CSc3ccncc3)[C@H]2SC1 was read as 2A Renilla 3.4% and 2A firefly 0.0%[11.5 µM].
For Cc1noc(C)c1CS(=O)(=O)c1ccc(F)cc1 the results were 2A Renilla -7.2% and 2A firefly -3.4%.
`CC(=O)c1cc2c(cc1NC(=O)CSc1nnc(C3CC3)n1C)OCO2` gave 2A Renilla -10.3% and 2A firefly -5.8%.
Nc1nc(-c2ccc(Cl)cc2)nn1C(=O)c1ccc(F)cc1 was read as 2A Renilla -5.8% and 2A firefly 51.1%[activator].
Screening Cc1ccc(NC(=O)c2sc3nc(-c4ccc(F)cc4)ccc3c2N)cc1F returned 2A Renilla 4.3% and 2A firefly 63.9%[activator].
Screening CCOc1ccc2nc(NC(=O)c3noc4c3COc3ccccc3-4)sc2c1 returned 2A Renilla -6.4% and 2A firefly 15.4%.
For O=C(CS(=O)(=O)c1cccc2nsnc12)N1CCN(c2ccc(F)cc2)CC1 the results were 2A Renilla -2.7%&-1.1% and 2A firefly 1.9%&-2.7%.
For Cc1cc(SC(C)C(=O)NC(=O)NC(C)C)nc2ccccc12 (stereo not given) the results were 2A Renilla -2.2% and 2A firefly 0.9%.
`CCOC(=O)C1=C(N)Oc2c(oc(CO)cc2=O)C1c1ccccc1C(F)(F)F` (stereo not given) gave 2A Renilla 17.3% and 2A firefly 4.8%.
CC(C)n1c(SCCC(=O)O)nc2c1c(=O)[nH]c(=O)n2C was read as 2A Renilla -2.2% and 2A firefly -7.8%.
For O=C(NCCCCCCCN1CCCC1)c1ccco1 the results were 2A Renilla -19.6% and 2A firefly 4.9%.
Cc1ccc(COc2ccc(C=O)cc2Cl)cc1 was read as 2A Renilla 42.7%[activator] and 2A firefly 323.8%[activator].
Cn1c(=O)c2c(-c3ccccc3)n3c(c2n(C)c1=O)C(c1ccc(O)cc1)OCC3(C)C (stereo not given) was read as 2A Renilla 22.9% and 2A firefly -0.2%.
`CCn1cc(S(=O)(=O)Nc2cc(F)ccc2F)cn1` gave 2A Renilla 44.9%[activator] and 2A firefly 0.9%.
For Cc1ccc2oc(-c3ccc(NC(=O)c4oc5ccc(Cl)cc5c4C)cc3)nc2c1 the results were 2A Renilla 13.5% and 2A firefly 5.9%.
`CCCn1nc(C(=O)Nc2cccc(C)c2C)c2ccccc2c1=O` gave 2A Renilla -4.7% and 2A firefly 8.7%.
Screening O=C(Nc1ccc(F)cc1)c1oc2ccccc2c1NC(=O)C1CCCCC1 returned 2A Renilla -11.2% and 2A firefly -1.4%.
Screening Cc1ccccc1NC(=O)c1cc(C2CC2)nc2ccccc12 returned 2A Renilla -1.6% and 2A firefly 0.7%.
COc1ccc(OCCN(C)C(=O)c2cccc3c(=O)c(C)c(-c4ccccc4)oc23)cc1 was read as 2A Renilla 0.0% and 2A firefly -6.5%.
For CCOc1ccc(-c2nc(C#N)c(N3CCN(C)CC3)o2)cc1 the results were 2A Renilla -3.8% and 2A firefly 8.4%.
COC(=O)Cc1c(C)c2ccc3c(c2oc1=O)CN(Cc1ccccc1Cl)CO3 was read as 2A Renilla -15.5% and 2A firefly -17.9%.
For O=C(NCCN1CCC(Cc2ccccc2)CC1)C1CCN(c2nc3cccnc3s2)CC1 the results were 2A Renilla 6.2% and 2A firefly 1.1%.
`CC(=O)Nc1ccc(N2C(=O)C(=O)/C(=C(/O)c3ccc(Cl)cc3)C2c2ccc(Cl)cc2)cc1` (stereo not given) gave 2A Renilla -6.1% and 2A firefly 16.7%.
For O=C(O)CC1(CNC(=O)Cn2ccc3c(Cl)cccc32)CCCCC1 the results were 2A Renilla 7.3% and 2A firefly 30.1%.
`CCOC(=O)C1CCCN(C(=O)C2CCN(c3nnc(C)c4c(C)n(-c5ccccc5)nc34)CC2)C1` (stereo not given) gave 2A Renilla 9.1% and 2A firefly 28.7%.
Screening COc1ccc(-c2cc(C)no2)cc1S(=O)(=O)N1CCc2ccccc21 returned 2A Renilla 93.6%[activator] and 2A firefly 6.2%.
`CN(C)CCN(CC1CCCCC1)C(=O)Nc1ccc(Cl)cc1` gave 2A Renilla -12.5% and 2A firefly -8.5%.
COc1ccc(C(=O)NCc2coc(-c3cccs3)n2)c(F)c1 was read as 2A Renilla 8.6% and 2A firefly 2.0%.

Next part (two carried over from the part before).
`CN(C)CCN(CC1CCCCC1)C(=O)Nc1ccc(Cl)cc1` gave 2A Renilla -12.5% and 2A firefly -8.5%.
COc1ccc(C(=O)NCc2coc(-c3cccs3)n2)c(F)c1 was read as 2A Renilla 8.6% and 2A firefly 2.0%.
CCN(CC(=O)NC(C)C)Cc1nc(-c2cccs2)oc1C was read as 2A Renilla -4.4% and 2A firefly -9.5%.
`O=S(=O)(NC1CCN(S(=O)(=O)c2cc(C(F)(F)F)ccc2Cl)CC1)c1cccs1` gave 2A Renilla 112.3%[activator] and 2A firefly -3.3%.
For CCOC(=O)c1cc(-c2ccccc2)n(CCC(=O)NCCc2ccc(OC)c(OC)c2)c1C the results were 2A Renilla 3.6% and 2A firefly -8.3%.
`Cc1cc(F)ccc1NS(=O)(=O)c1c(C)nc2scc(C)n2c1=O` gave 2A Renilla 207.3%[activator] and 2A firefly -7.5%.
`CC(=O)c1ccccc1NC(=O)Cc1ccc(C)c(C)c1` gave 2A Renilla 5.4% and 2A firefly 7.5%.
`CCCNc1c(NC(=O)Cc2cccs2)c(=O)oc2ccccc12` gave 2A Renilla 12.9% and 2A firefly -2.1%.
Screening COCCNC(=O)NC(=O)COC(=O)c1ccc(COc2ccc3c(C)cc(=O)oc3c2)cc1 returned 2A Renilla -19.9% and 2A firefly 19.2%.
CCN(Cc1ccccc1)Cc1cc(=O)oc2ccc(C)cc12 was read as 2A Renilla 17.5% and 2A firefly 1.7%.
CCOc1ccc(NS(=O)(=O)c2ccc(OCC(=O)NCc3ccc4c(c3)OCO4)c(C)c2)cc1 was read as 2A Renilla 66.9%[activator] and 2A firefly inconclusive.
CS(=O)(=O)NCCc1ccc(C(=O)O)cc1 was read as 2A Renilla -1.0% and 2A firefly -14.5%.
Screening C#CCOc1ccc(C2C(C(=O)OC)=C(C)NC3=C2C(=O)c2ccccc23)cc1OCC (stereo not given) returned 2A Renilla 11.2% and 2A firefly -3.9%.
`CCOc1ccc(NC(=O)CN2C(=O)C3(SCC(=O)N3c3ccc(F)cc3)c3ccccc32)cc1` (stereo not given) gave 2A Renilla -18.7% and 2A firefly -30.8%.

An excerpt taken from the entries so far, as a working copy:
CCN(CC(=O)NC(C)C)Cc1nc(-c2cccs2)oc1C was read as 2A Renilla -4.4% and 2A firefly -9.5%.
`O=S(=O)(NC1CCN(S(=O)(=O)c2cc(C(F)(F)F)ccc2Cl)CC1)c1cccs1` gave 2A Renilla 112.3%[activator] and 2A firefly -3.3%.
For CCOC(=O)c1cc(-c2ccccc2)n(CCC(=O)NCCc2ccc(OC)c(OC)c2)c1C the results were 2A Renilla 3.6% and 2A firefly -8.3%.
`Cc1cc(F)ccc1NS(=O)(=O)c1c(C)nc2scc(C)n2c1=O` gave 2A Renilla 207.3%[activator] and 2A firefly -7.5%.
`CC(=O)c1ccccc1NC(=O)Cc1ccc(C)c(C)c1` gave 2A Renilla 5.4% and 2A firefly 7.5%.
`CCCNc1c(NC(=O)Cc2cccs2)c(=O)oc2ccccc12` gave 2A Renilla 12.9% and 2A firefly -2.1%.
Screening COCCNC(=O)NC(=O)COC(=O)c1ccc(COc2ccc3c(C)cc(=O)oc3c2)cc1 returned 2A Renilla -19.9% and 2A firefly 19.2%.

The list continues.
For CCOc1ccc(NC(=O)CCc2nc(-c3ccc(C)n(C(C)C)c3=O)no2)cc1 the results were 2A Renilla 9.8% and 2A firefly 13.4%.
Screening CC(C)(C)NC(=O)NCC(=O)N1CCc2ccccc21 returned 2A Renilla 5.4% and 2A firefly 0.0%.
Cc1ccc(CNC(=O)CCCN2C(=O)CCn3nc(-c4cn(C)c5ccccc45)cc32)cc1 was read as 2A Renilla -21.2% and 2A firefly -22.3%.
Screening N#Cc1ccc(OCc2cccc3ccccc23)c(Cl)c1 returned 2A Renilla 10.3% and 2A firefly 0.0%.
C=CCNc1nc(-c2ccc(CNC(=O)C(C)(C)C)s2)cs1 was read as 2A Renilla -5.3% and 2A firefly 1.6%.
NC1=NC(c2cccc(Cl)c2)n2c(nc3ccccc32)N1 (stereo not given) was read as 2A Renilla -7.5% and 2A firefly 21.0%.
Cc1ccc(NC(=O)c2cc(-c3cccnc3)nc3ccccc23)c(O)c1 was read as 2A Renilla 0.7% and 2A firefly -1.2%.
For O=C(O)/C(=C\c1ccc(F)cc1)NC(=O)c1ccco1 the results were 2A Renilla 6.0% and 2A firefly 6.4%.
`CCn1c(CC2C(=O)N(C(C)C)c3ccccc32)nc2ccccc2c1=O` (stereo not given) gave 2A Renilla 9.1% and 2A firefly -6.9%.
Screening Cc1nn(C)c(C)c1S(=O)(=O)N(CC(=O)N1CCN(c2ccccc2)CC1)c1ccc(C(C)C)cc1 returned 2A Renilla -11.0% and 2A firefly -19.2%.
For COc1ccc(Cl)cc1NC(=O)CN(C)S(=O)(=O)c1ccc(Br)s1 the results were 2A Renilla 31.8%[activator] and 2A firefly 13.8%.
